# Source: PubChem (National Center for Advancing Translational Sciences (NCATS))
# gsp ag – activates gsp, the McCune-Albright syndrome mutation | gsp mutant cells, cAMP HTRF, 30 min; control for the full effect not named in the record | Potency, µM (top dose mostly 76.9 µM), inactives show at the highest dose activation (cAMP increase), usual class: activators | 0.13% of 340,000 active; active = well fitted activation curve with a large enough effect; inconclusive = small, poorly fitted or top-dose-only effect, or another doubt; inactive = no such curve, though single readings can be large or run the other way; cell line not stated here;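 also: phosphodiesterase inhibitor Ro 20-1724 added with compounds to block cAMP breakdown; potency is read from the fitted curve at half-maximal effect; nearly all actives have a fitted effect of over 60% in size; about a fifth of the inactives were tested at one dose only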
#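 Cells stably selected in G418 were plated at 2000/well, grown 16-24 hr, then given compounds in DMSO with the PDE inhibitor […] (300 uM solution added) for 30 min at 37C; cAMP was read by HTRF.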
# TRPML1 blocker – human mucolipin-1 channel inhibition. Q9GZU1. TRPML1-inducible cells, Ca2+ dye fluorescence, FDSS; stronger effect = lower value; inhibition of EC80 agonist-evoked calcium signal. activity change, negative = inhibition, % (concentration not given with the values). 0.02% of 390,000 active; in the data active means activity change below about -50%; inconclusive means about -30% to -50%; inactive means above about -30%;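 also: stimulus is agonist 54-4 at its EC80 concentration; % is scaled to controls: 0 for no effect and ±100 for the full control effect; compound concentration not given in the record; the text of the record puts the active cut at -80%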
# Target sequence (Q9GZU1 whole entry, looked up): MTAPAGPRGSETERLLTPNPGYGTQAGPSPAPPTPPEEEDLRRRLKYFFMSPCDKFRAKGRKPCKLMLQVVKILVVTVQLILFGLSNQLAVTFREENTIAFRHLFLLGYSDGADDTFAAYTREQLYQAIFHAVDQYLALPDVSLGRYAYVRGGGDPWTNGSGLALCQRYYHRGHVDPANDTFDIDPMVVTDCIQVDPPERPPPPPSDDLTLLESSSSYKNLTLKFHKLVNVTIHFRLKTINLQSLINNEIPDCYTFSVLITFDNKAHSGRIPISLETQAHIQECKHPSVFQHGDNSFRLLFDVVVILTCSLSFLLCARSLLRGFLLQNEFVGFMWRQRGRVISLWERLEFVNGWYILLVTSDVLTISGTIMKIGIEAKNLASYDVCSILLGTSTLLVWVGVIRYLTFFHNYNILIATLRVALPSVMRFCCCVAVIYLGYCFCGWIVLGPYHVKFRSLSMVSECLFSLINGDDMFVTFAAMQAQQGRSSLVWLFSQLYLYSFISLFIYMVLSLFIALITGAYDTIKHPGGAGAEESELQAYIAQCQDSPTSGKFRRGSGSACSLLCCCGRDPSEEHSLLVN
#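 Calcium fluorescence in TRPML1-DL cells induced overnight with Tet: a 110 s read after compound pin addition, then a 110 s antagonist read after challenge with 54-4 at 4 uM final (EC80).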
# gsp antag – antagonizes gsp, the McCune-Albright syndrome mutation | gsp-mutant cells, cAMP HTRF, 30 min; control for the full effect not named in the record | 0.4% of 340,000 active | Potency, µM (titrated, usually from 76.9 µM), for the others: at the top dose activity change, negative = inhibition, most hits filed as inhibitors | AID 624288; active = falling curve of any shape with a large fitted effect; inconclusive = falling curve, mostly with a smaller effect; inactive = flat or rising curve; cell line not stated here;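 also: intracellular cAMP measured with PDE inhibitor Ro 20-1724 present during compound exposure; potency is read from the fitted curve at half-maximal effect; % is scaled to controls: 0 for no effect and ±100 for the full control effect; nearly all actives have a fitted effect of over 65% in size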
#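 Cells in G418 medium, seeded 16-24 h, 37C; buffer exchange to DPBS + 1 mM CaCl2, 0.5 mM MgCl2, 0.05% BSA; cpds in DMSO + […] (300 uM stock), 30 min 37C; HTRF cAMP detection.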
# ClpP mod – qHTS Assay for Activators of ClpP; 1.9% of 340,000 active; purified B. subtilis ClpP, FRET peptide cleavage, 20 min; AID 651965, 2013; Potency, µM (series often up to 57.5 µM), for the others: top-dose activity change, negative = active; ATP-dependent Clp protease proteolytic subunit (Bacillus subtilis (strain 168)), P80244; active = well fitted falling curve with a large enough effect; inconclusive = small, poorly fitted or top-dose-only effect; inactive = no such curve, though single readings can be large or run the other way; also: potency is read from the fitted curve at half-maximal effect; the source files actives as falling curves though it sought activators and does not explain the sign; nearly all actives have a fitted effect of over 65% in size; many hits overshoot -100%
# Target sequence (P80244 whole entry, looked up): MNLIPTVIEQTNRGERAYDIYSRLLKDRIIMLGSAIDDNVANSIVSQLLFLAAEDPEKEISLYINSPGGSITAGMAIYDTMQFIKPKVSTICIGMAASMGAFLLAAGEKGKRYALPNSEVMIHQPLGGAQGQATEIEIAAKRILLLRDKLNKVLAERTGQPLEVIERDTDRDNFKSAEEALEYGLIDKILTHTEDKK
#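 Purified B. subtilis ClpP, 10 microg/mL final in Tris/HCl pH8 with KCl, BSA, glycerol and Tween-20, cleaved an Abz/nitrotyrosine-quenched decapeptide. Fluorescence (ex 320, em 430) was read at 0 and 20 min at room temperature. Delta was normalized to 5.8 microM ADEP and DMSO/no-enzyme controls.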
# Menin-MLL FL inh – displaces fluorescein MLL peptide from human menin | Fluorescence polarization, fluorescein-MLL peptide displacement from menin | FP activity change, % at 61.4 µM | 290,000 tested, under 10 active; inconclusive = falling polarisation curve, or a change in total fluorescence; inactive = total fluorescence flat and polarisation flat or rising; no compound was filed as active; the % refers to the polarisation; negative = inhibition;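 also: % of control where 0% means no effect; inhibitors lower the polarisation; unlabelled MLL peptide was the positive control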
# TRPML1 agonist – human mucolipin-1 channel agonism; TRPML1-expressing cells, Ca2+ dye fluorescence, FDSS; host cell line not named in the record; reference of the full effect not given here; activation, % (no concentration beside the values); 0.12% of 410,000 active; AID 624414; Q9GZU1; in the data active = activation above about 50%; inconclusive = about 30% to 50%; inactive = below about 30%; also: 0% is about no effect; the text of the record puts the active cut at 80%
#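 Tetracycline-induced TRPML1-DL cells are seeded and incubated overnight before loading with a no-wash Ca2+ dye and quencher. Agonist activity is taken from the 110 s fluorescence read following compound pin-transfer on an FDSS, before EC80 54-4 challenge.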
# Active calls of the source: *; ? = inconclusive; · = no result given; & = joins results of further samples; [ ] = another dose, or the depositor's remark.
SMILES,gsp ag,TRPML1 blocker,gsp antag,ClpP mod,Menin-MLL FL inh,TRPML1 agonist
CC(=O)c1cccc(NC(=O)N2CCC(CN3CCCCC3)CC2)c1,·,1,·,-1.9%,·,-0.4
Cc1ccc(C)c(S(=O)(=O)NCc2ccc(C(=O)NCc3ccccn3)cc2)c1,-8%,-18,3%,-1.0%,3.9,0.0
Cc1nccn1CCOc1ccc(Cl)cc1,14%[15.4 µM],4,2%,3.7%,-4.6,0.3
COc1ccc(N2CCN(C3CCCN(C(=O)c4ccoc4)C3)CC2)cc1 (stereo unspecified),-40%[inhibitor],-14,-3%,-3.9%,·,-0.3
O=c1c2ccccc2sc2nc(C3CCCCC3)n(Cc3ccco3)c(=O)c12,27%,-10,-5%,0.0%,0.8,-0.3
COc1ccccc1NC(=O)c1ccc(NC(=O)CN2CCCC2)cc1,-3%,6,10%,·,-9.1,0.7
Cc1ccsc1/C=N/Nc1ccc(Cl)nn1,5%,-7,1%,2.4%,2.4,-0.1
CCOC(=O)CN1C(C(=O)c2ccccc2)=C(OC(=O)c2ccccc2)c2ccccc2S1(=O)=O,·,-8,·,0.2%,·,1.3
CCNC(=O)CSc1nnc(-c2cccc(S(=O)(=O)N(CC)CC)c2)n1CCc1ccccc1,-5%,5,?,-2.7%,-3.9,2.5
CCc1ccc(CNC(=O)CN2C(=O)c3cccnc3Oc3ccc(C)cc32)cc1,·,-17,·,1.0%,·,2.3
O=C(/C=C/c1c(Cl)nc2ccccn12)N1CCN(c2ccccc2F)CC1,8%,-7,-4%,·,1.0,-1.1
CCC(C)NC(=O)CCCc1ccccc1 (stereo unspecified),3%,2,7%,0.8%,-1.7,-1.0
O=C(Nc1nccs1)c1ccc(COc2ccccc2)o1,2%[15.4 µM],10,-17%,-1.8%,-1.2,1.3
COc1cccc(C(c2sc3ncnn3c2O)N2CC(C)OC(C)C2)c1 (stereo unspecified),?,-9,8%,0.4%,0.2,-0.2
CN(C)c1cccc(C(=O)OCC(=O)NCC2CCCO2)c1 (stereo unspecified),15%,-11,2%,-22%,1.7,-0.8
CCc1cc2c(SCC(=O)N(CC)c3c(N)n(Cc4ccccc4)c(=O)[nH]c3=O)ncnc2s1,?,7,-14%,-1.3%,2.9,2.1
COP(=O)(OC)c1nc(-c2ccccc2)oc1NCc1ccccc1,-7%[15.4 µM],12,11%,-0.7%,1.7,0.0
Cc1cc2nc(-c3ccc(=O)[nH]c3)n(C)c2cc1C,-5%[15.4 µM],1,-3%,0.0%,-2.4,-1.0
COc1ccc(CCNC(=O)Cn2cc(C(F)(F)F)cc(Cl)c2=O)cc1OC,-37%[inhibitor],-13,-1%,0.0%,·,-0.3
COC(=O)[C@@]1(Cc2ccc(OC)cc2)[C@H]2c3cc(C(=O)N4CCCC4)n(CCO)c3C[C@H]2CN1C(=O)c1ccccc1,·,40,-3%,5.7%,-2.1&-6.0,-0.4
CN1CCC(=NNC(=O)C(=O)NC2CCCC2)CC1,-11%,-18,9%,32µM*,0.1,0.1
CCOC(=O)N1CCN(C(=O)c2ccc3nc(C)sc3c2)CC1,-36%[inhibitor],-23,3%,-0.2%,0.5,1.9
COc1ccc(OC)c(S(=O)(=O)N2CCN(c3ncccn3)CC2)c1,9%,18,8%,-11%,-14,1.0
COc1cc(/C=N/NC(=S)NC2CC3C=CC2C3)cc(OC)c1OC (stereo unspecified),2%[15.4 µM],-10,23%,·,-2.9,1.2
CC(=O)Nc1cnc2ccccc2n1,13%,1,3%,-8.9%,-1.8,-0.3

# Remaining list, next part:
SMILES,gsp ag,TRPML1 blocker,gsp antag,ClpP mod,Menin-MLL FL inh,TRPML1 agonist
Cc1ccc(CC(=O)O/N=C(\N)Cc2ccc([N+](=O)[O-])cc2)cc1,17%,4,11%,·,2.3,-0.7
Cc1cc(C)cc(C(=O)OCC(=O)NCCNC(=O)COC(=O)c2cc(C)cc(C)c2)c1,-9%,-7,-4%,-0.5%,·,0.7
O=C(Cn1ccc2ccccc2c1=O)N1CCN(Cc2ccc3c(c2)OCO3)CC1,1%,3,-13%,-19%,2.6,-0.4
CC(Sc1cccc[n+]1[O-])C(=O)Nc1ccc([N+](=O)[O-])cc1Cl (stereo unspecified),?,2,2%,2.3%,3.7,-0.6
O=c1c(=O)n(-c2cccc(Cl)c2)ccn1Cc1cccc(F)c1,·,10,·,-0.9%,·,1.6
O=S(=O)(c1ccc(SCc2c(F)cccc2Cl)nc1)N1CCCC1,15%,-1,·,-2.1%,·,0.9
COc1ccc(S(=O)(=O)NCCc2ccccn2)cc1,-7%,23,11%,·,·,-0.3
COc1ccc(CCNc2ccc(S(=O)(=O)N3CCN(C)CC3)cc2[N+](=O)[O-])cc1,-16%[15.4 µM],6,-1%,·,·,1.9
COc1cc(CCC(=O)OCC(=O)Nc2c(Cl)cccc2Cl)cc(OC)c1OC,5%[15.4 µM],-10,-3%,·,-3.4,-0.1
COCCn1cc(C(=O)NCc2ccco2)c2c3ccccc3n(C)c2c1=O,0%,13,-10%,·,1.2,-0.5
CCc1cccc(CC)c1NC(=O)CSc1nnc(C2CC2)n1N,-21%,7,-4%,-10%,·,-0.3
Cc1nc2c(-c3ccccc3)cnn2c(N)c1-c1ccccc1,23%[15.4 µM],8,-12%,-8.0%,-0.4,4.9
Cc1ccc2oc(/N=C(\N)NC(=O)C3CC3)nc2c1,10%,24,17%,-1.6%,-0.8,-1.0
COc1ccc(/C=N/NC(=O)c2cccnc2)cc1COc1ccc([N+](=O)[O-])cc1,13%[15.4 µM],23,-11%,·,15,0.8
CCC(C)(C)C1CCc2[nH]nc(C(=O)NCCNC(=O)OC(C)(C)C)c2C1 (stereo unspecified),2%,2,-12%,-1.6%,·,-1.1
Cc1occc1C(=O)Nc1nnc(-c2ccncc2)s1,?,2,-12%,32µM*,8.5,0.6
Nc1ccc(Oc2ncccn2)cc1,34%,-7,-2%,2.6%,-1.4,0.3
O=C(O)c1ccccc1C(=O)N1N=C(c2ccccc2)CC1c1ccccc1O (stereo unspecified),16%,16,0%,-0.7%,0.9,0.1
CCOC(=O)C1CCN(CCCSc2ccc(Cl)cc2)CC1,8%[15.4 µM],25,9%,-2.6%,-1.1,1.2
CCc1ccccc1NC(=O)Nc1ccc2snnc2c1,·,1,·,-2.8%,·,0.5
Cc1cccc(CNC(=O)C2CCN(c3nc4ccc(Cl)cc4[nH]3)CC2)c1,·,15,·,-1.5%,·,1.8
Cc1cc(C)c(COc2ccc(/C=N/n3c(C)n[nH]c3=S)cc2)c(C)c1,13%,12,-2%,-0.9%,0.8,3.2
O=C(Nc1ccccc1F)c1oc2ccccc2c1NC(=O)c1c(F)cccc1F,·,-22,·,3.3%,·,1.5
CC(C)(CN1CCCCC1)NS(=O)(=O)c1ccc(Cl)cc1,1%,50,10%,1.3%,-1.5,-0.2
COCCN(C(=O)c1cccc(OC)c1)c1nnc(-c2ccncc2)s1,-18%,-6,-31%,32%,3.9,-0.2

# Later entries.
SMILES,gsp ag,TRPML1 blocker,gsp antag,ClpP mod,Menin-MLL FL inh,TRPML1 agonist
CC(=O)C1=C(Nc2ccc(C)cc2)CC(C)(O)C(C(C)=O)C1c1ccco1 (stereo unspecified),7%,-3,-3%,-2.0%,4.9,3.2
Cc1ccccc1CC(=O)NCCN1CCOCC1,-22%,12,-11%,1.3%,1.7,0.0
CCC1Sc2ccccc2N(CC(=O)NCc2ccc(C)cc2)C1=O (stereo unspecified),·,11,·,-0.4%,·,0.5
CCOC(=O)Cc1csc(NS(=O)(=O)c2ccc([N+](=O)[O-])cc2)n1,13%[15.4 µM],19,-13%,1.9%,1.1,0.3
CC1CN/C(=C\C(=O)c2ccccc2)C(=O)N1 (stereo unspecified),-53%[inhibitor],11,-2%,-1.3%,3.0,-0.8
COc1ccc(N(C(=O)c2snc(C(N)=O)c2N)C(C(=O)NC2CCCCC2)c2ccc(C)o2)c(OC)c1 (stereo unspecified),-4%[15.4 µM],14,-7%,·,-4.1,0.7
CCc1ccccc1N1C(=O)N(C)c2ccccc2S1(=O)=O,·,-9,·,0.4%,·,0.4
COC(=O)c1ccc(NC(=S)N2CCCC2)cc1,-24%,-11,0%,2.8%,-0.2,0.5
O=C(NCCCO)c1cc2c(cn1)[nH]c1ccccc12,?,·,14%,4.1%,3.8,·
CCCOc1ccccc1C(=O)NC(CO)C(=O)O (stereo unspecified),0%,12,2%,2.0%,0.0,0.8
Cn1cnnc1SCC(=O)Nc1ccccc1C(=O)NC1CC1,27%,-2,7%,-2.1%,1.7,1.0
CCOc1ccccc1NC(=O)c1c(Br)cnn1C,-51%[inhibitor],13,7%,-1.0%,-0.3,0.4
Cc1cccc(N(C(=O)CCC(=O)Nc2ccccn2)C(C(=O)NC(C)C)c2ccc(F)cc2)c1 (stereo unspecified),28%,19,-8%,·,-2.8,2.5
O=C(CCSCc1ccc(Cl)cc1)NC1CCCC1,-26%,-3,-20%,0.2%,-0.5,1.2
NC(=O)CC(NC(=O)Cc1ccc(Br)cc1)c1ccc(NC2CCCCCC2)c([N+](=O)[O-])c1 (stereo unspecified),·,-9,-1%,0.5%,-0.2,0.4
CCOc1ccc(NC(=O)CCn2c(=S)oc3ccccc32)cc1,2%[15.4 µM],-5,15%,-1.4%,-8.3,-1.6
COc1ccccc1C(=O)C1CCCN(C(=O)c2cnn(C(C)C)c2)C1 (stereo unspecified),-4%,7,5%,-7.3%,·,-1.1
CCCCN1C(=O)C(O)(CC(=O)c2ccc(CC)cc2)c2cc(Br)ccc21 (stereo unspecified),·,25,·,-0.4%,·,2.9
Cc1cccc(CC2CC(=O)N(CCc3ccc4c(c3)OCO4)C2=O)c1 (stereo unspecified),-4%[15.4 µM],-3,·,·,0.3,-0.7

# Arranged by value in gsp ag (highest first): three of the compounds above
smiles | gsp ag
CN(C)c1cccc(C(=O)OCC(=O)NCC2CCCO2)c1 (stereo unspecified) | 15%
CC(C)(CN1CCCCC1)NS(=O)(=O)c1ccc(Cl)cc1 | 1%
CCc1cccc(CC)c1NC(=O)CSc1nnc(C2CC2)n1N | -21%

# Molecules above that contain bromine, in the order listed:
SMILES,gsp ag,TRPML1 blocker,gsp antag,ClpP mod,Menin-MLL FL inh,TRPML1 agonist
CCOc1ccccc1NC(=O)c1c(Br)cnn1C,-51%[inhibitor],13,7%,-1.0%,-0.3,0.4
NC(=O)CC(NC(=O)Cc1ccc(Br)cc1)c1ccc(NC2CCCCCC2)c([N+](=O)[O-])c1 (stereo unspecified),·,-9,-1%,0.5%,-0.2,0.4
CCCCN1C(=O)C(O)(CC(=O)c2ccc(CC)cc2)c2cc(Br)ccc21 (stereo unspecified),·,25,·,-0.4%,·,2.9
